Compound activity (PubChem)
Mtb hypoxia rep: PubChem AID 1159583. M. tuberculosis hypoxia-regulated fluorescent reporter, fluorescence. fluorescence inhibition, % (no concentration beside the values). 300,000 compounds, 0.1% hits;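 active means 35 to 45% if threefold the growth effect, above 45% if 1.5-fold the growth effect; inactive means the rest, general growth blockers included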;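 further: wells of about 50 µL received 100 nL stock; 0% = vehicle wells and 100% = reference inhibitor wells; whole bacteria with a GFP reporter of the hypoxia response; strong numbers were not always called active; many hits fall short of the cut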
BJeLR lethal: MLPCN primary cell-based screen for lethality selective to Ras in HRASV12 cells. inhibition, % (concentration not given with the values). 300,000 compounds, 0.17% hits. BJeLR (HRASV12) viability, CellTiter-Glo ATP luminescence, 48 h; reference of the scale not given here. AID 1554, 2009;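 active means replicate mean above 50%; inconclusive means above 50% but judged a plate artefact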;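 further: 50 nL library stock added to about 25 µL; numbers are from one replicate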
Sa ugtP lethal: growth inhibition of ugtP-null S. aureus, primary screen, RN4220 ugtP deletion, OD600; 16 h; some inactives read as strong as hits; growth inhibition, % (no concentration beside the values); 330,000 compounds, 0.54% hits; AID 1259309, 2017;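 active means z-score under -3 and OD600 up to 0.15 on both plates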;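 further: plate controls were untreated wells for no effect and antibiotic for full effect; wells of about 80 µL received 100 nL stock; the first replicate is given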
PrP 5UTR inh: inhibition of PrP 5' UTR reporter expression. cell-based PrP 5' UTR mRNA reporter, plate reader. inhibition, % (concentration not given with the values). 340,000 compounds, 0.35% hits. AID 488862, 2010;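 active means every replicate at 50% or more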;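 further: 0 = median of the neutral control wells; tested in H4 reporter cells; numbers are from one replicate; inactives centre near -14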
RN4220 kill: growth inhibition of S. aureus RN4220, primary screen, OD600. 16 h. 330,000 compounds, 0.33% hits. inhibition, % (concentration not given with the values). AID 1259311, 2017;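 active means z-score of -3 or lower and OD600 up to 0.18 on both plates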;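 further: plate controls were untreated cells for no effect and reference antibiotic for full effect; stock transfer was 100 nL into about 80 µL; one replicate is shown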
Bead autofluor: counter-screen for toxin protease inhibitors: compound fluorescence. compound autofluorescence counterscreen, microsphere flow cytometry; hits give high values. fluorescence intensity (no concentration beside the values). 360,000 compounds, 3.1% hits;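 active means at least 3 SD above the mean of all compounds, about 16000 in these data; inconclusive means too few beads counted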;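 further: 100 nL of 1 mM stock went into each well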
Mtb hypoxia rep growth: recorded beside Mtb hypoxia rep, whose call it bears; growth inhibition, %; measured here: M. tuberculosis growth (absorbance);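 0% = vehicle and 100% = reference antibiotic; read after six days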
Active calls of the source: *; u = inconclusive; x = not tested or not shown; & = joins results of further samples.

SMILES | Mtb hypoxia rep | Mtb hypoxia rep growth | BJeLR lethal | Sa ugtP lethal | PrP 5UTR inh | RN4220 kill | Bead autofluor
CNCc1cc2ccc(C)cc2[nH]c1=O | 2.5 | -4.3 | 2.6 | -6.1 | -15.9 | -2.4 | 3335
Cc1csc(=O)n1CC(=O)Nc1ccc(S(C)(=O)=O)cc1 | 7.5 | 2.9 | x | -2.9 | -18.0 | 2.6 | 3525
c1cc(C(c2nnnn2C2CCCCC2)N2CCN3CCCC3C2)ccn1 (stereo not given) | 3.5 | 1.8 | -7.0 | 2.7 | -19.5 | 2.4 | 12928
COc1cccc2cc(C(C)=O)oc12 | 6.6 | 5.2 | -9.5 | 1.1 | -3.6 | -0.6 | 3860
Cc1nnc(Nc2ccc3c(c2)OCO3)c2ccccc12 | 6.0 | 12.9 | 2.0 | -1.0 | -32.2 | 3.5 | u
O=C(NCc1ccccc1F)c1cccc(S(=O)(=O)N2CCCCC2)c1 | 17.6 | 5.2 | x | 3.9 | -3.5 | -1.2 | 3038
CCOC(=O)c1nn(-c2ccc(F)cc2)cc1O | 1.2 | 1.1 | 7.9 | 0.1 | -17.0 | 5.7 | 3932
COc1cccc(C2C(C(C)=O)=C(O)C(=O)N2CCNCCO)c1 (stereo not given) | -1.3 | 8.1 | 6.7 | 16.5 | x | 10.6 | x
O=C(NNC(=O)C1CCCN(S(=O)(=O)c2cccc(F)c2)C1)C1CC1 (stereo not given) | 2.0 | -7.7 | 8.2 | 1.2 | -13.5 | 0.9 | 4264
COc1cccc(C(=O)N/N=c2\sc3ccccc3n2C)c1 | x | x | 9.4 | x | -16.0 | x | 2426
COc1ccc(C(=O)CN2Cc3ccccc3C2=N)cc1 | -3.6 | 2.6 | 2.6 | 7.0 | -159.3 | 4.2 | 4574
COc1ccc(N(C)S(=O)(=O)c2cccc(C(=O)N3CCN(c4ccccc4)CC3)c2)cc1 | -1.3 | 2.4 | x | -2.1 | 3.3 | 0.0 | 6812
COC(=O)c1ccccc1NC(=O)CN1C(=O)CSC1=O | 0.7 | -0.6 | -0.5 | -2.2 | -5.7 | 3.1 | 6788
NC(=O)c1cc(S(=O)(=O)N2CCOCC2)cs1 | -2.2 | -11.1 | 9.0 | 7.6 | -0.6 | 6.0 | 4415
CCOC(=O)CNc1nc(Cl)nc(Nc2ccc(Cl)cc2)n1 | 3.8 | -3.5 | 3.3 | 1.4 | -2.4 | -0.4 | 4470
CC(C)n1cc(C(=O)N2CCCC(N3CCN(c4cccc(Cl)c4)CC3)C2)cn1 (stereo not given) | 14.9 | 7.3 | 1.5 | -8.3 | -20.9 | 5.5 | 5439
CC(C)CC(=O)N1CCN(C(=O)c2ccc(F)cc2)CC1 | -0.7 | -1.0 | 1.6 | 12.2 | -6.7 | 2.8 | 3673
Cc1cc2oc(=O)cc(CN3CCCCC3)c2cc1C | 1.2 | 0.4 | 10.4 | 0.5 | -19.7 | 0.5 | 3826
CCC1CCCCN1CC(=O)Nc1cc(OC)c(OC)cc1C#N (stereo not given) | -10.6 | -7.4 | x | 9.5 | -5.6 | 6.4 | 2530
c1ccc(-c2cn3c4c(sc3n2)CCCC4)cc1 | 5.6&6.2 | 9.4&3.6 | 24.5 | -15.7&3.8 | 42.9&40.4 | 9.9&16.4 | 2933&6210
CCc1ccc2c(CN3CCc4ccccc43)cc(=O)oc2c1 | 2.8 | 10.5 | 9.5 | 10.6 | -8.8 | 3.5 | 4267
CCN(CC)CCCNC(=O)c1c(O)c2c([nH]c1=O)CCCC2 | -5.5 | 6.7 | 4.2 | -6.0 | -14.0 | -3.2 | 9827
CCOCC1(CCc2ccccc2)C(=O)NC(=S)NC1=O | -3.7 | 2.0 | x | 4.9 | 6.1 | 4.1 | 2902
COc1ccc(/C=C(\NC(=O)c2ccc(Cl)cc2)C(=O)NCCCN2CCOCC2)cc1OC | 14.5 | 1.6 | -7.8 | -3.3 | -21.9 | 1.9 | 3133
CC(C)(O)P(=O)(O)CCc1ccccc1 | 5.6 | 8.5 | -4.5 | 5.9 | -14.2 | 5.3 | 3898
CNc1c(NS(=O)(=O)c2ccc(Br)cc2)c(=O)oc2ccccc12 | 10.0 | 1.5 | -0.2 | 1.8 | -8.2 | 11.2 | 3772
CC(C)C(=O)N1CCC(c2nc(-c3ccc(S(=O)(=O)N4CCN(C)CC4)cc3)no2)CC1 | -0.9 | -9.7 | 6.3 | 7.9 | -21.9 | 2.7 | 4130
COc1ccc([N+](=O)[O-])cc1C=NNC(=O)Cc1ccccc1 | 4.5 | -1.5 | x | 5.6 | x | 20.8 | x
COC(=O)[C@@]12CCCN1C(c1ccc(-c3ccc4c(c3)OCO4)cc1)C1C(=O)N(C)C(=O)C12 (stereo not given in full) | 10.7 | 11.6 | x | -5.2 | x | 1.0 | x
Cc1cc(C)n(Cc2ccc(Cl)cc2Cl)c(=O)c1S(=O)(=O)c1ccccc1 | x | x | 3.1 | -0.4 | -4.1 | 2.0 | 2039
CCN(CC)c1ccc(SS(=O)(=O)O)cc1 | -1.5 | 2.5 | -14.1&-8.3 | 0.5&9.7 | -0.3 | 10.0&1.2 | 2579&7654
Cc1cccc(COc2ncnc3nc[nH]c23)c1 | 1.2 | 5.1 | 12.0 | 6.3 | -31.9 | 7.3 | 2470
COc1cc(/C=C2\CC/C(=C\c3cc(OC)c(OC)c(OC)c3)C2=O)cc(OC)c1OC | x | x | 11.7 | x | -12.4 | x | 2534
Cc1cc(=O)cc(C)n1-c1ccc(F)cc1F | -6.9 | -0.5 | 3.5 | 6.4 | -56.4 | 7.0 | 4248
Cc1ccc(CSCC2Nc3ccc(C(=O)N4CCN(c5ccc(F)cc5)CC4)cc3NC2=O)cc1 (stereo not given) | x | x | -4.5 | x | -16.6 | x | 9436
Cc1ccc(/C=N/n2c(-c3ccco3)n[nH]c2=S)s1 | x | x | -15.6 | x | -9.1 | x | 2485
COc1ccc(N2CCN(C3CCCN(S(=O)(=O)c4ccc(C)cc4C)C3)CC2)cc1 (stereo not given) | -0.6 | 16.0 | 3.7 | 3.3 | 15.8 | 0.6 | 5897
COc1ccc(Br)cc1S(=O)(=O)N(CC(=O)N1CCN(C)CC1)c1ccccc1 | 7.7 | 12.8 | -5.5 | 4.6 | -17.0 | 1.6 | 5683
O=C(CSCc1cnn(-c2ccccc2)c1-n1cccc1)NCCN1CCOCC1 | 4.6 | -4.2 | -6.8 | 11.1 | -9.2 | -0.3 | 2294
Cc1ccc(NC(=O)c2cc(Cl)nc3ccccc23)cc1 | 8.0 | 6.5 | 2.3 | -6.5 | -20.7 | 4.3 | 8184
Cc1cc(OCC(=O)O/N=C(\N)c2ccccc2)cc(C)c1Cl | 6.3 | 8.8 | -13.2 | 20.5 | -33.5 | 5.5 | 12694
CCC(C)(C)NC(=O)C(c1cccnc1)N(C(=O)c1csnn1)c1ccccc1 (stereo not given) | 3.8 | -3.3 | 3.0 | 19.7 | -33.3 | 7.1 | 3500
O=C(NC(=S)Nc1ccc(N2CCOCC2)c(Cl)c1)c1cncc(Br)c1 | 1.8 | -4.4 | 1.0 | 47.6 | -24.1 | -2.9 | 2868
N#Cc1cn(CCOc2ccccc2F)c2ccccc12 | 6.3 | -3.6 | -1.8 | -9.2 | -9.6 | -3.3 | 4919
COC(=O)COc1ccc(C=NNS(=O)(=O)c2ccccc2)cc1 | 22.8 | 13.3 | x | 6.9 | x | 0.1 | x

Complete entries as entered above. Order of screens: Mtb hypoxia rep | Mtb hypoxia rep growth | BJeLR lethal | Sa ugtP lethal | PrP 5UTR inh | RN4220 kill | Bead autofluor
`O=C(NC(=S)Nc1ccc(N2CCOCC2)c(Cl)c1)c1cncc(Br)c1` across the screens: 1.8 | -4.4 | 1.0 | 47.6 | -24.1 | -2.9 | 2868
`COC(=O)COc1ccc(C=NNS(=O)(=O)c2ccccc2)cc1` across the screens: 22.8 | 13.3 | x | 6.9 | x | 0.1 | x
`N#Cc1cn(CCOc2ccccc2F)c2ccccc12` across the screens: 6.3 | -3.6 | -1.8 | -9.2 | -9.6 | -3.3 | 4919

Remaining list, next part.
SMILES | Mtb hypoxia rep | Mtb hypoxia rep growth | BJeLR lethal | Sa ugtP lethal | PrP 5UTR inh | RN4220 kill | Bead autofluor
CCOC(=O)C(=NNc1cccc(C(F)(F)F)c1)N1CCOCC1 | 7.5 | 2.4 | x | 23.1 | x | 6.6 | x
COCCNC(=O)C(c1ccc(C)o1)N(Cc1ccccc1)C(=O)Cn1nnc2ccccc21 (stereo not given) | x | x | 2.6 | 0.9 | -14.9 | 0.9 | 4492
Cc1cc(=O)c2cc(Cl)ccc2[nH]1 | 13.1 | 7.7 | 2.2 | 3.9 | -24.9 | 8.2 | 3545
COc1ccc(CNc2nc(SCC(=O)NCc3ccco3)nc3ccccc23)cc1 | 8.8 | 7.4 | -3.8 | 5.0 | -11.2 | 3.1 | 9757
Cc1ccc(C(=O)Nc2ccccc2C(=O)O)cc1S(=O)(=O)NC1CCCCC1 | -0.8 | 1.5 | -3.3 | -2.2 | -39.8 | -0.7 | 4898
O=C(c1cccs1)N(CCN1CCCCC1)CC1CCCN(C2CCCC2)C1 (stereo not given) | 5.1 | 3.8 | -3.8 | -3.7 | -40.7 | 1.0 | 6989
Cc1ccc(SCCC(=O)OCC(=O)Nc2ccc(C(N)=O)cc2)cc1 | 4.9 | 0.6 | x | 3.3 | -25.8 | 2.6 | 8163
COCc1cc(=O)n2[nH]c(SCc3ccccc3)nc2n1 | x | x | 1.8 | -0.5 | -10.3 | 3.3 | 2447
COc1cccc(-c2nn(CCC#N)cc2C(=O)Nc2ccccc2Cl)c1 | 2.9 | 0.0 | -1.7 | 4.9 | -4.7 | 3.5 | 3712
CCCC(=O)OCC(=O)Nc1ccccc1C#N | 2.0 | 2.5 | -3.8 | 4.4 | -14.5 | 5.9 | 4454
COc1ccccc1N1CCN(C(=O)[C@H](C)NS(=O)(=O)c2ccc3c(c2)OCCCO3)CC1 | 12.3 | 11.8 | x | 4.1 | -16.3 | -0.5 | 3356
COc1cccc(N2CCN(S(=O)(=O)c3ccc(-n4cnnn4)cc3)CC2)c1 | -12.0 | -12.7 | 5.2 | -12.8 | -12.0 | -5.5 | 5877
Cc1cc(C(=O)OCC(=O)Nc2sc3c(c2C#N)CCC(C)C3)c2ccccc2n1 (stereo not given) | 12.3 | 3.2 | -5.9 | 7.5 | 5.4 | 2.6 | 1929
COc1ccc(C)c2sc(N(CCCN(C)C)C(=O)c3ccc(S(=O)(=O)N4CCc5ccccc5C4)cc3)nc12 | 13.3 | 10.3 | 80.6* | -9.1 | -18.6 | -2.2 | x
O=C(CCNS(=O)(=O)c1cccs1)Nc1ccccc1F | 13.8 | 6.9 | -1.2 | -4.8 | -16.4 | 5.9 | 8701
COCCNCCOCCOc1cccc(OC)c1 | 4.6 | 7.8 | -3.9 | 1.6 | -15.5 | 0.3 | 2470
Cn1cnnc1SCC(=O)NC1CCCCC1 | 0.8 | 10.3 | 10.7 | -5.4 | -133.5 | 1.2 | 4139
Cc1ccc(-n2nc3c(=O)n(CCCC(=O)N4CCCCC4)nc(C)c3c2C)cc1 | 3.9 | 0.1 | 1.8 | -2.5 | -19.2 | 1.6 | 6108
O=C(c1ccco1)N1CCN(S(=O)(=O)c2ccc(Br)s2)CC1 | 2.1 | 3.6 | 3.7 | 2.2 | -10.4 | 3.7 | 9995
CCN(C(=O)Cn1cnc2c(nc3n2CCCCC3)c1=O)c1cccc(Cl)c1 | 7.2 | 5.2 | 3.5 | 5.2 | -17.1 | 1.8 | 5378
CCCCN(CCCC)c1cc(C)nc(-c2ccccc2O)n1 | 5.5 | 4.0 | 6.7 | -18.2 | -16.9 | -11.5 | 2903
COc1ccccc1N1CCN(S(=O)(=O)c2ccc3c(c2)n(C)c(=O)n3C)CC1 | -0.2 | 15.6 | -3.9 | -2.5 | -16.4 | 3.9 | 4387
CCOC(=O)C(NC(=O)CC)(Nc1sc(C)c(CC)c1C#N)C(F)(F)F (stereo not given) | 1.0 | 6.5 | -1.0 | -4.2 | -18.5 | 5.0 | 2005
COc1ccc(C(C)=NNC(=O)CNC(=O)c2ccncc2)c(OC)c1 | -4.3 | -7.4 | x | 1.9 | x | 1.1 | x
CCOC(=O)c1c(C)c(C(=O)NCc2ccccn2)c(C)n1C | 5.6 | 1.4 | 5.0 | -0.7 | -22.5 | 1.1 | 8014
Cc1ccc(C(C)C)c(OCC(=O)NN=C2CCCC(=O)C2)c1 | 4.5 | 8.9 | x | -7.4 | -9.8 | 1.1 | 3929
